# Assay outcomes deposited in PubChem by Broad Institute.
# Vaccinia stage – blocks a specific stage of Vaccinia orthopoxvirus infection; 89,000 tested, 0.01% active; activity change (mCherry), % (no concentration beside the values); Vaccinia-infected cells, mCherry/Venus stage reporter fluorescence; stronger effect = lower value; some inactives read as strong as hits; AID 1053133;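 active = mCherry past -33% and 40 or more points under the early reporter, replicates agreeing; inconclusive = past -33% without that gap or agreement; tested in A549 cells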;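 also: scaled between vehicle wells and reference inhibitor wells; 23 nL library stock went into each well; one replicate is shown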
# Vaccinia stage Venus – further read-out of Vaccinia stage, marked with its call; activity change (Venus), %; measured here: Venus reporter, other viral stage;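 negative = less Venus signal; first of two replicates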
# * hit, by the source's call; ? = inconclusive; / = no result given.
# Start of the data: the first 11 records (preview)
smiles | Vaccinia stage Venus | Vaccinia stage
O=S(=O)(c1ccccc1)N1CCN(Cc2cccc(OCCO)c2)CC1 | 10 | 16
Cc1ccc(-c2cnc3c(c2)C(=O)N([C@H](C)CO)C[C@H](C)[C@H](CN(C)Cc2ccccc2C(=O)O)O3)cc1 | 1 | 9
COc1cccc(-c2ccc(C3[C@@H]4CN(C(=O)c5ccc(F)cc5)C[C@H]3N4)cc2)c1 (stereo not given in full) | / | ?
O=C(CC(F)(F)F)N1C[C@H]2[C@@H](c3ccccc31)[C@@H](CO)N2C(=O)C1CCCCC1 | 5 | -12
O=C(C[C@H]1CC[C@@H]2[C@H](COC[C@@H](O)CN2C(=O)c2ccccc2F)O1)NCc1ccccc1 | 9 | 1
CCC(=O)N1CC2(CCN(Cc3ccc(Cl)cc3)CC2)c2c(n(C)c3cc(OC)ccc23)[C@H]1CO | / | ?
C[C@@H](NC(=O)C[C@@H]1C=C[C@@H](NC(=O)C2CCOCC2)[C@H](CO)O1)c1ccccc1 | -1 | 0
OC[C@H]1[C@H](c2ccc(-c3ccccc3)cc2)[C@H]2CN(Cc3cncnc3)CCCCN21 | 10 | 5
CCCC(=O)Nc1ccc2c(c1)OC[C@@H](C)N(C(=O)c1cccnc1)C[C@H](C)[C@H](OC)CN(C)C2=O | 12 | 22
O=C(C[C@@H]1CC[C@H]2[C@@H](COC[C@@H](O)CN2Cc2nccs2)O1)NCc1ccccc1 | 14 | 11
COc1cccc(NC(=O)N(C)C[C@H]2Oc3ncc(C#Cc4cccnc4)cc3C(=O)N([C@H](C)CO)C[C@@H]2C)c1 | -2 | -1

# Main list, from the first entry:
smiles | Vaccinia stage Venus | Vaccinia stage
O=S(=O)(c1ccccc1)N1CCN(Cc2cccc(OCCO)c2)CC1 | 10 | 16
Cc1ccc(-c2cnc3c(c2)C(=O)N([C@H](C)CO)C[C@H](C)[C@H](CN(C)Cc2ccccc2C(=O)O)O3)cc1 | 1 | 9
COc1cccc(-c2ccc(C3[C@@H]4CN(C(=O)c5ccc(F)cc5)C[C@H]3N4)cc2)c1 (stereo not given in full) | / | ?
O=C(CC(F)(F)F)N1C[C@H]2[C@@H](c3ccccc31)[C@@H](CO)N2C(=O)C1CCCCC1 | 5 | -12
O=C(C[C@H]1CC[C@@H]2[C@H](COC[C@@H](O)CN2C(=O)c2ccccc2F)O1)NCc1ccccc1 | 9 | 1
CCC(=O)N1CC2(CCN(Cc3ccc(Cl)cc3)CC2)c2c(n(C)c3cc(OC)ccc23)[C@H]1CO | / | ?
C[C@@H](NC(=O)C[C@@H]1C=C[C@@H](NC(=O)C2CCOCC2)[C@H](CO)O1)c1ccccc1 | -1 | 0
OC[C@H]1[C@H](c2ccc(-c3ccccc3)cc2)[C@H]2CN(Cc3cncnc3)CCCCN21 | 10 | 5
CCCC(=O)Nc1ccc2c(c1)OC[C@@H](C)N(C(=O)c1cccnc1)C[C@H](C)[C@H](OC)CN(C)C2=O | 12 | 22
O=C(C[C@@H]1CC[C@H]2[C@@H](COC[C@@H](O)CN2Cc2nccs2)O1)NCc1ccccc1 | 14 | 11
COc1cccc(NC(=O)N(C)C[C@H]2Oc3ncc(C#Cc4cccnc4)cc3C(=O)N([C@H](C)CO)C[C@@H]2C)c1 | -2 | -1
COCC(=O)N1[C@H](CO)[C@@H]2c3ccccc3N(C(=O)Nc3cc(F)ccc3F)C[C@@H]21 | 13 | 17
CC(C)CC#Cc1ccc([C@@H]2[C@H]3CN(C(=O)c4ccccn4)CC(=O)N3[C@H]2CO)cc1 | 1 | -1
C[C@@H]1CN([C@H](C)CO)C(=O)c2cc(-c3ccc(C#N)cc3)cnc2O[C@@H]1CN(C)C(=O)c1ccccc1 | 6 | 18
C[C@H](CO)N1C[C@H](C)[C@@H](CN(C)Cc2ccccc2)OCCCC[C@H](C)Oc2ccc(NC(=O)Nc3ccc4c(c3)OCO4)cc2C1=O | / | ?
CC(C)NC(=O)N[C@H]1CC[C@H](CCNC(=O)C2CCCC2)O[C@H]1CO | 1 | 6
Cc1noc(C)c1S(=O)(=O)N(C)C[C@@H]1OCCCC[C@@H](C)Oc2ccc(NS(=O)(=O)c3cn(C)cn3)cc2C(=O)N([C@H](C)CO)C[C@@H]1C | 3 | 11
CN(C)CC(=O)N1[C@@H](C#N)[C@H](c2ccc(-c3ccccc3F)cc2)[C@@H]1CO | 2 | 6
CNC(=O)C[C@H]1CC[C@@H]2[C@@H](COc3ccc(NC(=O)NC4CCCC4)cc3C(=O)N2C)O1 | 13 | 14
Cc1ccc(S(=O)(=O)N(C)C[C@H]2OCCCC[C@H](C)Oc3ccc(NC(=O)NC4CCCCC4)cc3C(=O)N([C@H](C)CO)C[C@@H]2C)cc1 | -19 | -26
C[C@H]1CCCCO[C@H](CN(C)Cc2ccncc2)[C@@H](C)CN([C@@H](C)CO)C(=O)c2cc(NS(=O)(=O)c3ccccc3)ccc2O1 | 6 | 12
C[C@@H]1CCCCO[C@@H](CN(C)C(=O)Nc2ccc(C(F)(F)F)cc2)[C@@H](C)CN([C@H](C)CO)C(=O)c2cc(NS(=O)(=O)c3cn(C)cn3)ccc2O1 | 0 | 12
CC(C)(O)C#Cc1ccc([C@H]2[C@@H](CO)N3CCCCN(C(=O)c4ccc(F)cc4)C[C@H]23)cc1 | -11 | -4
Cc1ccc(S(=O)(=O)Nc2cccc3c2O[C@@H](CN(C)Cc2ccc(C(=O)Nc4ccccc4N)cc2)[C@@H](C)CN([C@H](C)CO)C3=O)cc1 | -10 | 0
O=C(C[C@H]1CC[C@@H]2[C@H](COC[C@@H](O)CN2C(=O)Nc2cccc(F)c2)O1)NCCCN1CCOCC1 | 19 | 7
C[C@@H]1CN([C@H](C)CO)C(=O)Cc2cc(NS(=O)(=O)c3cn(C)cn3)ccc2O[C@@H]1CN(C)S(=O)(=O)c1cn(C)cn1 | 26 | 29
C[C@H](CO)N1C[C@H](C)[C@H](CN(C)C(=O)c2ccccc2F)Oc2ncc(C#Cc3ccncc3)cc2C1=O | 21 | 13
Cc1noc(C)c1NC(=O)Nc1ccc2c(c1)C(=O)N([C@@H](C)CO)C[C@H](C)[C@@H](CN(C)C(=O)Cc1ccccc1)OCCCC[C@@H](C)O2 | 3 | 15
CN(C)CCCNC(=O)[C@H]1[C@H](CO)[C@H]2Cn3c(ccc(-c4ccncc4)c3=O)[C@@H]1N2C(=O)C1CC1 | -3 | -3
C[C@H](CO)N1C[C@H](C)[C@H](CN(C)C(=O)NC2CCCCC2)Oc2ccc(NC(=O)Nc3ccc(C(F)(F)F)cc3)cc2CC1=O | -7 | -16
COCC(=O)Nc1ccc2c(c1)[C@@H]1C[C@H](CC(=O)NC3CCCCC3)O[C@H](CO)[C@@H]1O2 | -4 | -3
C[C@H](CO)N1C[C@H](C)[C@H](CN(C)C(=O)Nc2ccc(F)cc2)Oc2c(NS(=O)(=O)c3ccc(F)cc3)cccc2C1=O | -11 | -19
C[C@H]1CN([C@@H](C)CO)C(=O)c2cccc(NC(=O)Nc3cccc4ccccc34)c2O[C@H]1CN(C)S(C)(=O)=O | 1 | 0
CCCNC(=O)N1C[C@@H](C)[C@@H](OC)CN(C)C(=O)c2cc(NC(=O)CC)ccc2OC[C@H]1C | 6 | 11
COc1cccc(CNC(=O)[C@@H]2[C@@H](CO)[C@@H]3Cn4c(ccc(-c5cncnc5)c4=O)[C@@H]3N2C)c1 | 10 | 4
COc1cccc(-c2cnc3c(c2)C(=O)N([C@H](C)CO)C[C@H](C)[C@H](CN(C)S(=O)(=O)c2ccc(C#N)cc2)O3)c1 | -9 | -16
C[C@@H]1CN([C@@H](C)CO)C(=O)c2cc(C3=CCCC3)cnc2O[C@H]1CN(C)S(C)(=O)=O | 11 | 18
O=C(NCC[C@H]1CC[C@@H](NS(=O)(=O)c2cccc(F)c2)[C@@H](CO)O1)C1CCCC1 | 5 | -2
Cc1ccc(S(=O)(=O)N(C)C[C@@H]2Oc3ccc(NC(=O)Nc4c(C)noc4C)cc3C(=O)N([C@H](C)CO)C[C@@H]2C)cc1 | 5 | 12
C[C@H](CO)N1C[C@H](C)[C@@H](CN(C)S(C)(=O)=O)Oc2c(NC(=O)CCCCCC(=O)Nc3ccccc3N)cccc2C1=O | 12 | 15
O=C(C1CCC1)N1CCCCN2[C@H](CO)[C@H](c3ccc(-c4ccncc4)cc3)[C@H]2C1 | 16 | 24
COCC(=O)Nc1ccc2c(c1)OC[C@H](C)N(CCC(F)(F)F)C[C@H](C)[C@@H](OC)CN(C)C2=O | -8 | -3
CO[C@@H]1CN(C)C(=O)c2cc(NS(=O)(=O)c3ccccc3)ccc2OC[C@H](C)N(C)C[C@H]1C | 0 | -1
C[C@H](CO)N1C[C@H](C)[C@H](CN(C)C(=O)CN(C)C)Oc2ncc(C#Cc3cccnc3)cc2C1=O | 8 | 8
C[C@@H]1CN([C@@H](C)CO)C(=O)c2cccc(NS(C)(=O)=O)c2O[C@H]1CN(C)CC1CC1 | 15 | 11
CCN1[C@@H]2c3ccc(C4=CCCC4)c(=O)n3C[C@@H]2[C@@H](CO)[C@@H]1C(=O)NCc1cccc(OC)c1 | 22 | 17
COCCNC(=O)C[C@@H]1CC[C@@H]2[C@H](COc3ccc(NC(=O)C4CCCC4)cc3C(=O)N2C)O1 | -2 | -2
C[C@@H]1CN([C@H](C)CO)C(=O)c2cc(NC(=O)CCN3CCOCC3)ccc2O[C@H]1CN(C)S(=O)(=O)c1cccs1 | 2 | 2
C[C@@H]1CN([C@H](C)CO)C(=O)c2c(c3ccccc3n2C)-c2ccccc2CO[C@H]1CN(C)C(=O)Oc1ccccc1 | -13 | -29
C[C@H](CO)N1C[C@H](C)[C@H](CN(C)S(=O)(=O)c2ccc(Cl)cc2)Oc2c(NC(=O)C3CCOCC3)cccc2C1=O | 12 | 18
CCS(=O)(=O)N1CCCCN2[C@H](CO)[C@@H](c3ccc(-c4ccc(C(=O)N(C)C)cc4)cc3)[C@H]2C1 | 6 | 10
C[C@@H]1CN([C@H](C)CO)C(=O)c2cc(NS(C)(=O)=O)ccc2O[C@@H]1CN(C)Cc1ccc(C(=O)Nc2ccccc2N)cc1 | 12 | 10
C[C@H](CO)N1C[C@H](C)[C@@H](CN(C)C(=O)C2CCCCC2)OCCCC[C@H](C)Oc2ccc(NC(=O)Nc3ccc(C(F)(F)F)cc3)cc2C1=O | -11 | -17
C[C@@H]1CCCCO[C@H](CN(C)C)[C@H](C)CN([C@H](C)CO)C(=O)c2cc(NS(=O)(=O)c3ccc(F)cc3)ccc2O1 | 6 | 6
C[C@H]1CN([C@@H](C)CO)C(=O)c2cccc(NS(=O)(=O)c3ccc(F)cc3)c2O[C@@H]1CN(C)S(=O)(=O)c1cn(C)cn1 | 10 | 6
CC(C)NC(=O)Nc1ccc2c(c1)C(=O)N([C@@H](C)CO)C[C@H](C)[C@H](CN(C)Cc1ccc(C(=O)O)cc1)O2 | 5 | 13
C[C@@H]1CCCCO[C@@H](CN(C)S(=O)(=O)c2ccc(F)cc2)[C@@H](C)CN([C@H](C)CO)C(=O)c2cc(NC(=O)Nc3ccc(C(F)(F)F)cc3)ccc2O1 | 14 | 21
C[C@H](CO)N1C[C@H](C)[C@@H](CN(C)S(=O)(=O)c2ccc(Cl)cc2)Oc2c(NC(=O)c3ccncc3)cccc2C1=O | 11 | 2
Cc1cccc(CN(C)C[C@@H]2Oc3ncc(-c4ccc(F)cc4)cc3C(=O)N([C@H](C)CO)C[C@@H]2C)c1 | / | ?
COCC#Cc1ccc2c(c1)O[C@H](CN(C)C(=O)Nc1ccccc1F)[C@@H](C)CN([C@H](C)CO)S2(=O)=O | -6 | -9

# Some of the entries so far, field by field.
SMILES: C[C@@H]1CN([C@H](C)CO)C(=O)c2cc(NC(=O)CCN3CCOCC3)ccc2O[C@H]1CN(C)S(=O)(=O)c1cccs1
  Vaccinia stage Venus = 2 | Vaccinia stage = 2

SMILES: C[C@@H]1CN([C@H](C)CO)C(=O)c2c(c3ccccc3n2C)-c2ccccc2CO[C@H]1CN(C)C(=O)Oc1ccccc1
  Vaccinia stage Venus = -13 | Vaccinia stage = -29

# (next part)
smiles | Vaccinia stage Venus | Vaccinia stage
C[C@H]1CCCCO[C@@H](CN(C)Cc2ccncc2)[C@@H](C)CN([C@@H](C)CO)C(=O)c2cc(NS(=O)(=O)c3ccc(F)cc3)ccc2O1 | -10 | -2
COCC#Cc1ccc2c(c1)O[C@@H](CN(C)S(C)(=O)=O)[C@@H](C)CN([C@H](C)CO)S2(=O)=O | 0 | 4
O=C(C1CCC1)N1CC(=O)N2[C@@H](CO)[C@H](c3ccc(-c4ccccc4F)cc3)[C@@H]2C1 | -1 | 3
O=C(NCC[C@@H]1CC[C@H](NC(=O)Nc2cc(F)ccc2F)[C@@H](CO)O1)Nc1ccc(Cl)cc1 | 6 | 2
C[C@H](CO)N1C[C@H](C)[C@H](CN(C)C(=O)Nc2ccc(F)cc2)OCCCC[C@H](C)Oc2ccc(NC(=O)Nc3ccccc3)cc2C1=O | -1 | -4
C[C@@H]1CN([C@@H](C)CO)C(=O)Cc2cc(NS(C)(=O)=O)ccc2O[C@H]1CN(C)CC1CCCCC1 | -11 | -17
COc1ccc(NC(=O)N(C)C[C@@H]2Oc3c(NC(=O)C4CC4)cccc3C(=O)N([C@@H](C)CO)C[C@H]2C)cc1 | 4 | 5
O=C(N[C@@H]1CC[C@H](CC(=O)N2CCOCC2)O[C@@H]1CO)c1ccc2c(c1)OCO2 | 10 | 15
C[C@@H]1CN([C@@H](C)CO)C(=O)c2cccc(NC(=O)CCCCCC(=O)Nc3ccccc3N)c2O[C@@H]1CN(C)Cc1ccc2c(c1)OCO2 | 0 | -3
CO[C@@H]1CN(C)C(=O)c2ccc(NC(=O)Nc3ccc(Cl)cc3)cc2OC[C@H](C)N(C)C[C@@H]1C | -17 | -21
COc1cccc(CN2[C@@H]3CNC[C@H]2[C@H]3c2ccc(-c3ccccc3OC)cc2)c1 | 0 | 1
COC(=O)c1ccc([C@@H]2C=C(C(=O)N3CCN(Cc4ccc5c(c4)OCO5)CC3)O[C@H](OCc3ccc(CO)cc3)C2)cc1 | -11 | -3
CCCNC(=O)N(C)C[C@@H]1Oc2cc(C3=CCCC3)ccc2S(=O)(=O)N([C@@H](C)CO)C[C@H]1C | 31 | 26

# Not all compounds are listed; the hit share may differ from the screen's.
